Source: PubChem BioAssay
Tb PGK inh: blocks T. brucei phosphoglycerate kinase. P07378. PGK/GAPDH coupled, Kinase-Glo luminescence, 60 min. Potency, µM (series often up to 57.5 µM), inactives show top-dose activity change, negative = inhibition, usual class: inhibitors. 0.043% of 380,000 active; also: potency is read from the fitted curve at half-maximal effect; nearly all actives have a fitted effect of over 60% in size
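Recombinant glycosomal PGK reaction used 1,3-bisphosphoglycerate generated in-well by GAPDH (100nM final) in 100mM TEA pH 7.6, 5mM MgCl2, 0.01% Tween-20. After 60 minutes at room temperature, ATP was read by Kinase-Glo Plus luminescence end-point.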
Pin1 inh: blocks the human prolyl isomerase Pin1. Potency, µM (highest dose often 115 µM), for inactives: at the top dose activity, negative = inhibition, actives largely listed as inhibitors. Q13526. 0.009% of 390,000 active. AID 504891. Pin1 FP peptide displacement, HiFluor488, 10 min; active = well fitted inhibition curve with a large enough effect in the polarisation, with a control signal flat, not every such curve was filed as active; inconclusive = small, poorly fitted or top-dose-only effect, or effect the other way, or a change in a side signal; inactive = no such curve, though single readings can be large or run the other way; the % refers to the polarisation; also: potency is read from the fitted curve at half-maximal effect
PI4K2A inh: inhibitors of human PI4K2A. 0.13% of 420,000 active. purified PI4K2A, ADP-Glo luminescence, 1 h; hits give low values. Q9BTU6. AID 1346378. activity change, negative = inhibition, % at 76.9 µM; in the data active = activity change below about -50%; inconclusive = mostly about -30% to -49%;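 also: -100% = wells without enzyme as full effect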
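Compounds are screened against recombinant PI4K2A using PI as substrate and ATP, the latter dispensed at 300 microM. Reactions run one hour at ambient temperature before ADP-Glo detection; full inhibition defined by wells lacking enzyme.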
mIDH1 inhibitor: inhibitors of human mutant IDH1 R132H. Potency, µM (top dose mostly 76.6 µM), without a hit: at the highest dose activity change, negative = inhibition, actives largely listed as inhibitors. O75874. AID 602179. 0.093% of 390,000 active. IDH1-R132H enzyme, NADPH consumption, diaphorase/resazurin fluorescence; also: potency is read from the fitted curve at half-maximal effect; nearly all actives have a fitted effect of over 65% in size
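IDH1-R132H (0.5 ug/mL) preincubated 30 min with compound, then NADPH (0.016 mM) and alpha-KG (2 mM) added; 80 min at RT, pH 7.5. Remaining NADPH coupled via diaphorase/resazurin to fluorescence (540/590 nm); concentration-response curves normalized to no-enzyme control.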
USP1 inh: blocks the human USP1/UAF1 deubiquitinase complex; recombinant USP1/UAF1, Ub-Rhodamine cleavage fluorescence; 0.23% of 390,000 active; O94782; Potency, µM (highest dose often 57.1 µM), for the others: at the top dose activity change, negative = inhibition, most hits filed as inhibitors; AID 743255; also: potency is read from the fitted curve at half-maximal effect; nearly all actives have a fitted effect of over 60% in size; inactives centre near -12
Target sequence (O94782 whole entry, looked up): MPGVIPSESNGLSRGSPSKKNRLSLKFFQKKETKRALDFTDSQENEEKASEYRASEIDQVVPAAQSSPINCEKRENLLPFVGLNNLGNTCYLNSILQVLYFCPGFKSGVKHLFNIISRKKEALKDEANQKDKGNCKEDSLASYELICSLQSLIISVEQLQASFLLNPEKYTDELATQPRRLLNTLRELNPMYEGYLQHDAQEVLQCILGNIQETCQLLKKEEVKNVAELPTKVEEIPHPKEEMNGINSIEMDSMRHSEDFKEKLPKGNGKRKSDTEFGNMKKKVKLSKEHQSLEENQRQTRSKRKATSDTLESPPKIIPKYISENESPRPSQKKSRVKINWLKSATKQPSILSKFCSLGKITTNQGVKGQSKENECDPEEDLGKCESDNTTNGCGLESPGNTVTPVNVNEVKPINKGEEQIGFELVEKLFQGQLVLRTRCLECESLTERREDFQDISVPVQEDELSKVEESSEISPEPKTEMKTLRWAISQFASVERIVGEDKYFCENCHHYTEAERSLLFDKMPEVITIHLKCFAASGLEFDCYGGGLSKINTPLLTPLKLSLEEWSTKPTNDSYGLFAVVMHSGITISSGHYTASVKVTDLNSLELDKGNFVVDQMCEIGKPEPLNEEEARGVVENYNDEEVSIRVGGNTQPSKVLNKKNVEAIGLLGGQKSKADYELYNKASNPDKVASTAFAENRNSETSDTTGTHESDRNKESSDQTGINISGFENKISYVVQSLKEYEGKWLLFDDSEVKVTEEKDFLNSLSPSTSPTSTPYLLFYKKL
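High-throughput fluorogenic screen: 1nM USP1/UAF1 complex, Ub-Rho substrate 150nM final, 50mM HEPES pH 7.8 with 0.5mM EDTA, 0.1 mg/ml BSA, 1mM TCEP and 0.01% Tween-20.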
GLS inh: blocks human kidney-isoform glutaminase activity. O94925. GLS enzymatic activity, qHTS titration. Potency, µM (doses to about 45.5 µM), for the others: top-dose activity change, negative = inhibition, actives largely listed as inhibitors. 0.21% of 410,000 active. AID 624170; also: potency is read from the fitted curve at half-maximal effect
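Assay buffer: 45 mM KH2PO4 pH 8.2, 0.02% Tween-20. hKGA acts on L-glutamine (1 mM solution added); product glutamate is reported by an oxidase/peroxidase Amplex Red coupling, with fluorescence taken at baseline and 30 min.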
TrxR1 substrate: rat thioredoxin reductase 1 substrate activity. O89049. purified TrxR1 substrate turnover, NADPH consumption readout. Potency, µM (doses to about 114 µM), inactives show at the highest dose activity change, negative = substrate turnover. 0.01% of 390,000 active; also: potency is read from the fitted curve at half-maximal effect; nearly all actives have a fitted effect of over 50% in size
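Rat TrxR1, dispensed at 90 nM, was prereduced with 400 uM NADPH (final) for 5 min at ~22 deg C, then incubated with compound 15 min before 400 uM selenite. A first-read NADPH fluorescence drop versus no-compound background flagged substrates.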
TrxR1 inh: rat TrxR1 inhibition; O89049; recombinant rTrxR1, NADPH fluorescence consumption, selenite substrate; Potency, µM (highest dose often 114 µM), without a hit: top-dose activity change, negative = inhibition, hits mostly inhibitors; 1% of 390,000 active; AID 588453; also: potency is read from the fitted curve at half-maximal effect; nearly all actives have a fitted effect of over 65% in size
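Rat TrxR1 (90 nM in the dispensed reagent) was pre-reduced with 400 uM NADPH for 5 min at room temperature, then incubated with compound for 15 min. After 400 uM selenite was added, NADPH fluorescence (Ex 340/Em 450 nm) was followed for 8 min.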
The depositor's hits bear a star; ? = inconclusive; [ ] = another dose, or the depositor's remark. Unless noted, calls follow the shape of the dose curve; as a rule, active = well fitted curve in the direction sought with a large enough effect; inconclusive = small, poorly fitted or top-dose-only effect, or another doubt; inactive = no such curve, though single readings can be large; an effect the other way counts as inactive or inconclusive. Unless noted, % is scaled to controls: 0 for no effect and ±100 for the full control effect. A portion of the library, so the mix of outcomes need not match the whole.

Value order: Tb PGK inh, Pin1 inh, PI4K2A inh, mIDH1 inhibitor, USP1 inh, GLS inh, TrxR1 substrate, TrxR1 inh
1: O=S(=O)(c1cccc(F)c1)N1CCN(Cc2cc3c(cc2Br)OCCO3)CC1
    -2%, 9%, 2, -1%, -23%, -15%, -4%, 36%[activator]
2: CCOC(=O)c1ccc(NC(=O)NCc2ccccn2)cc1
    5%, -2%, -3, 6%, -10%, 8%, -1%, 8%
3: O=C(NCCCN1CCCCCC1)c1ccc(CS(=O)(=O)Cc2ccccc2F)o1
    6%, 5%, 3, 2%, 4%, 10%, -2%, ?
4: CCC(C)(C)n1nnnc1C(c1cccs1)N1CCc2ccccc21 (configuration not stated)
    -4%, 3%, -5, 2%, -12%, 55%[activator], 0%, 5%
5: COc1ccc(Cl)cc1N(CC(=O)Nc1ccc2c(c1)OCO2)S(C)(=O)=O
    -2%, -5%, 1, 0%, -9%, 14%, 5%[57.1 µM], 17%[57.1 µM]
6: CC1=[N+](C)N(c2ccccc2)C(=O)C1N=C/C=C/c1ccccc1 (configuration not stated)
    -1%, 11%, 3, -4%, -22%, -1%, -14%, -6%
7: CCN(c1ccc(NC(=O)c2cccc(S(=O)(=O)N3CCN(C)CC3)c2)cc1)C(C)C
    0%, -1%, -2, 8%, -13%, 32%, -2%, -3%
8: CC(C)c1nn2c(=O)cc(COC(=O)c3ccc4c(c3)OCO4)nc2s1
    0%, 3%, -9, 14%, -22%, -3%, -2%[57.1 µM], 9%[57.1 µM]
9: COc1cccc2c1Oc1ncccc1N(c1ccc(C(=O)NCc3cccc(C)c3)s1)C2
    2%, 42%[activator], 2, -8%, -8%, 13%, 36%[activator][57.1 µM], 48%[activator][57.1 µM]
10: Cc1ccccc1Nc1sc(C(=O)c2ccccc2)c(N)c1C(=O)NCc1ccc(Cl)cc1
    2%, -2%, 0, -11%, -20%, 3%, -1%[57.1 µM], 17%[57.1 µM]

From no. 9 to 10, copied from above:
Value order: Tb PGK inh, Pin1 inh, PI4K2A inh, mIDH1 inhibitor, USP1 inh, GLS inh, TrxR1 substrate, TrxR1 inh
9: COc1cccc2c1Oc1ncccc1N(c1ccc(C(=O)NCc3cccc(C)c3)s1)C2
    2%, 42%[activator], 2, -8%, -8%, 13%, 36%[activator][57.1 µM], 48%[activator][57.1 µM]
10: Cc1ccccc1Nc1sc(C(=O)c2ccccc2)c(N)c1C(=O)NCc1ccc(Cl)cc1
    2%, -2%, 0, -11%, -20%, 3%, -1%[57.1 µM], 17%[57.1 µM]

More compounds follow:
Value order: Tb PGK inh, Pin1 inh, PI4K2A inh, mIDH1 inhibitor, USP1 inh, GLS inh, TrxR1 substrate, TrxR1 inh
11: CCCCOc1ccc(Cc2n[nH]c(=S)n2N)cc1
    -2%, -7%, -24, 8%, -17%, -30%, -24%[57.1 µM], -18%[57.1 µM]
12: COc1ccc(CNC(=O)c2c(Nc3ccccc3C)sc(C(=O)c3ccccc3)c2N)cc1
    -5%, 0%, -1, ?, -32%, -3%, 2%[57.1 µM], 15%[57.1 µM]
13: CC(=O)N1CCN(S(=O)(=O)c2cccc(C(=O)NCCc3ccc(Cl)cc3)c2)CC1
    -2%, 4%, 5, 2%, -3%, 2%, -7%, -4%
14: Cc1ccc(OCCCn2ccnc2)c([N+](=O)[O-])c1
    1%, -4%, 2, -3%, -17%, 6%, -1%[57.1 µM], 2%
15: COc1cc(C(=O)N/N=C/c2ccc(OC(=O)c3cccc(C)c3)c(OC)c2)ccc1O
    3%, ?, -1, -6%, -8%, 0%, 6%, 33%[activator]
16: O=[N+]([O-])c1cccc(C=NN2CCCCCC2)c1
    -4%, 1%, 2, -5%, -17%, 13%, 7%[57.1 µM], 11%[57.1 µM]
17: CN(C)S(=O)(=O)N1CCC(CO)(Cc2cccc(C(F)(F)F)c2)CC1
    -10%, -1%, 18, 4%, -22%, 3%, 15%[57.1 µM], 26%[57.1 µM]
18: CC(=O)Nc1cc2c(cc1[N+](=O)[O-])-c1ccccc1C2O (configuration not stated)
    -13%, 1%, -5, 8%, -6%, ?, 2%, -4%
19: CCOC(=O)C1(Cc2cccc(OC)c2)CCCN(S(=O)(=O)N(C)C)C1 (configuration not stated)
    -3%, -2%, 2, 2%, -22%, -1%, 7%, 25%
20: COc1ccc(N=C2c3ccccc3-c3ccc([N+](=O)[O-])cc32)cc1
    -8%, -6%, 1, -7%, -10%, -6%, -7%, 1%

Entries of single compounds, looked up by structure. Order of values: Tb PGK inh	Pin1 inh	PI4K2A inh	mIDH1 inhibitor	USP1 inh	GLS inh	TrxR1 substrate	TrxR1 inh
Profile of `Cc1ccc(OCCCn2ccnc2)c([N+](=O)[O-])c1` = 1%	-4%	2	-3%	-17%	6%	-1%[57.1 µM]	2%
Profile of `O=S(=O)(c1cccc(F)c1)N1CCN(Cc2cc3c(cc2Br)OCCO3)CC1` = -2%	9%	2	-1%	-23%	-15%	-4%	36%[activator]
Profile of `CC(=O)Nc1cc2c(cc1[N+](=O)[O-])-c1ccccc1C2O` (configuration not stated) = -13%	1%	-5	8%	-6%	?	2%	-4%
Profile of `CC(C)c1nn2c(=O)cc(COC(=O)c3ccc4c(c3)OCO4)nc2s1` = 0%	3%	-9	14%	-22%	-3%	-2%[57.1 µM]	9%[57.1 µM]
Profile of `CCN(c1ccc(NC(=O)c2cccc(S(=O)(=O)N3CCN(C)CC3)c2)cc1)C(C)C` = 0%	-1%	-2	8%	-13%	32%	-2%	-3%

More structures:
Short keys – A = Tb PGK inh; B = Pin1 inh; C = PI4K2A inh; D = mIDH1 inhibitor; E = USP1 inh; F = GLS inh; G = TrxR1 substrate; H = TrxR1 inh
21	N#CC(c1nc2ccccc2nc1N1CCOCC1)S(=O)(=O)c1ccccc1 (configuration not stated)
  A = -7%; B = 4%; C = -2; D = -4%; E = -10%; F = -18%; G = -3%[57.1 µM]; H = 6%[57.1 µM]

22	CN1CCN(CC(O)COCCOc2ccc(Br)cc2)CC1 (configuration not stated)
  A = -8%; B = 3%; C = 2; D = 7%; E = -10%; F = -16%; G = -3%; H = 1%

23	Clc1cccc(CSc2nccn2-c2ccccc2)c1
  A = 0%; B = 0%; C = -4; D = 8%; E = -19%; F = 3%; G = -6%; H = 2%

24	COc1ccc(CNCc2cccc(C)c2)cc1
  A = -6%; B = 1%; C = 2; D = 5%; E = -5%; F = -1%; G = -4%[57.1 µM]; H = -15%[57.1 µM]

25	CCOC(=O)c1sc(NC(=O)C(C)C)c(C#N)c1C
  A = -13%; B = 74%[activator]; C = -6; D = 13%; E = -3%; F = ?; G = 10%; H = 6%[57.1 µM]

26	O=[N+]([O-])c1cc(C=NN2CCCCCC2)ccc1Cl
  A = 2%; B = 1%; C = 6; D = 0%; E = -9%; F = 7%; G = 9%[57.1 µM]; H = 13%[57.1 µM]

27	O=C(C1CCCN(Cc2ccccc2Br)C1)N1CCCCC1 (configuration not stated)
  A = -9%; B = -6%; C = 1; D = 0%; E = -9%; F = -27%; G = 15%[57.1 µM]; H = 15%[57.1 µM]

28	COc1cc(OC)c(OC)cc1CN1CCCC(C(=O)N2CCCC2)C1 (configuration not stated)
  A = -6%; B = ?; C = 5; D = 6%; E = -17%; F = -8%; G = 9%[57.1 µM]; H = 18%
